Bioassay records from PubChem.
MLL AF4-AF9 inh: inhibitors of AF4 peptide binding to AF9, primary screen, biochemical, AlphaScreen, biotin-AF4 peptide, FLAG-AF9, single point | inhibition, % at 10 µM | actives 0.47% (n = 350,000);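 active = every replicate reaching a set inhibition limit, whatever the replicate mean, cut at about 25% in these data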;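 also: 0% = plate neutral control median and 100% = total signal loss; the record names both 10 and 1 µM as test concentration; the first replicate is given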
Target sequence (P42568 whole entry, looked up): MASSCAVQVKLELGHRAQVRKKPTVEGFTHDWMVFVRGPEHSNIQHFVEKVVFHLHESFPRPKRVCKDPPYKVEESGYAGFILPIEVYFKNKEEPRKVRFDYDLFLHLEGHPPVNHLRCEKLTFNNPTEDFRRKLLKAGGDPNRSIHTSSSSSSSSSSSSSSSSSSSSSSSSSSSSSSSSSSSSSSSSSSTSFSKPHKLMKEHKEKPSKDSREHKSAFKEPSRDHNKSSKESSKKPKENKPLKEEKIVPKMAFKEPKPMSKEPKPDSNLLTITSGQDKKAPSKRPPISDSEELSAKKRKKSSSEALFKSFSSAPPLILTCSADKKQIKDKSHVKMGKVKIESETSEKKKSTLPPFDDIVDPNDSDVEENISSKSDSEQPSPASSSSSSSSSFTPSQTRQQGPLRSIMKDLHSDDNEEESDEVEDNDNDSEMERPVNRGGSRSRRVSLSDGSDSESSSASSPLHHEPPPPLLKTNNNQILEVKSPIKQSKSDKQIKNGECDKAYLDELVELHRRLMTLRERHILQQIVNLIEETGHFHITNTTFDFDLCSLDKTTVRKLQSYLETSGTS
rRNA inh HTS: reduced GFP signal of wild-type E. coli, primary screen, bacterial rRNA inhibitor project, GFP/RFP fluorescence, OD600, single point | E. coli WT GFP vs humanized-ribosome RFP mutants, 24 h; active compounds read low; DMSO median 0, no signal -100 | GFP signal change (wild-type ribosome), % (concentration not given with the values) | actives 1.6% (n = 350,000);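 active = significant combined selectivity score with lowered wild-type GFP, culture density cut under 30%, mutant RFP and density less affected; inactive = any of these conditions unmet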; also: one replicate is shown; some compounds called inactive have numbers as strong as hits
FGF22 binding: binders of human FGF22 protein, primary screen, FGF22 synaptogenesis inhibitor project, biophysical, thermal shift, single point; Fibroblast growth factor 22 (Homo sapiens), Q9HCT0; actives 1.5% (n = 340,000); calls only at 9.99 µM; recombinant FGF22 thermal shift, SYPRO orange fluorescence; percent of sucrose octasulfate shift, DMSO zero;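 active = melting point raised past a set limit in the mean and every replicate; three in four hits are not shown here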
Target sequence (Q9HCT0 whole entry, looked up): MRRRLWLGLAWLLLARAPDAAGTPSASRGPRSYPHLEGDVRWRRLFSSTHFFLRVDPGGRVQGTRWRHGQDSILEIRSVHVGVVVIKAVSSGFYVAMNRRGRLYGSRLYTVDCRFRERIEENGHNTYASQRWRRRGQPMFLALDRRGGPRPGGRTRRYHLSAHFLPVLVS
UCH37 inh: inhibitors of human UCH37 deubiquitinase, primary screen, biochemical, Ub-AMC cleavage, fluorescence; Ubiquitin carboxyl-terminal hydrolase isozyme L5 (Homo sapiens), Q9Y5K5; purified proteasome/UCH37; inhibition, % (test concentration not listed); actives 0.33% (n = 330,000);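 active = mean of two replicates above 20%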;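 also: 0% = compound-free wells with enzyme and 100% = wells lacking proteasome; stock transfer was 100 nL into about 20 µL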
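System: Proteasome-associated human UCH37 deubiquitinase; Input: 0.15 nM proteasome in added enzyme buffer; Also added: Ub-AMC substrate from 1 µM stock; Incubation: 30 min compound-proteasome preincubation then 25 min substrate reaction, room temperature; Detection: fluorescence, ex 355 nm, em 460 nm; Read-out: % inhibition of Ub-AMC cleavage fluorescence; Benchmarks: no-proteasome and no-compound wells.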
Bfl-1 A1 inh: caspase 3/7 activation in MEF A1-2A-BIM cells, primary screen, A1 inhibitor project, cell-based, luminescence, HTS. Caspase-Glo 3/7 luminescence, 3 h; percent of clofoctol response, vehicle zero. caspase activation, % (no concentration beside the values). actives 0.066% (n = 330,000). AID 2462, 2010;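 active = over half of replicate activation scores above 10%, or exactly half above 10 with the replicate mean above 10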;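 also: wells of about 30 µL received 50 nL stock; many hits fall short of the cut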
Beta apoptosis: inhibitors of cytokine-induced beta cell apoptosis, primary screen, luminescence; protection from apoptosis, % (no concentration beside the values); actives 0.8% (n = 300,000); AID 435005, 2010; INS-1E cytokine-induced death, ATP luminescence, 48 h; percent of positive-control rescue, neutral wells zero;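 active = all replicates at 75% or more, or half of them and the mean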;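 also: 0% = cytokine-treated negative control wells and 100% = positive control rescue; higher means more ATP so stronger rescue from cytokine killing; wells of about 40 µL received 100 nL stock; the first replicate is given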
T cruzi repl: inhibitors of intracellular T. cruzi growth, primary screen, luminescence, NIH3T3 host cells; T. cruzi beta-gal in NIH3T3, 90 h; inhibition, % (test concentration not listed); actives 1.4% (n = 300,000); AID 1885, 2009;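 active = mean inhibition across valid replicates above about 55%, limit read from the data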;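 also: signal also drops with host cell toxicity which is not excluded here; 0% = plate median of DMSO wells and 100% = zero luminescence signal; higher percent means less beta-gal luminescence so fewer parasites; stock transfer was 50 nL into about 50 µL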
Ecoli growth: E. coli growth inhibition, primary screen, OD600; actives 0.21% (n = 330,000); Escherichia coli growth, 23 h; active compounds read low; OD600 absorbance (concentration not given with the values);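 active = OD600 absorbance below the run mean of sample wells minus 3.6 SD, in any replicate, cut at about 0.56 in these data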;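 also: stock transfer was 300 nL into about 60 µL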
rRNA inh HTS OD600: second read-out of rRNA inh HTS, no call of its own (marks repeat the call); OD600 change, %; measured here: OD600 growth;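 optical density of the mix in the first replicate; 0 = DMSO median and -100 = no signal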
rRNA inh HTS RFP: second read-out of rRNA inh HTS, no call of its own (marks repeat the call); RFP signal change, %; measured here: RFP humanized mutant strains;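 first replicate; 0 = DMSO median and -100 = no signal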
* = called active by the depositor; i = inactive; . = no result given; + = active, no number.

SMILES	MLL AF4-AF9 inh	Ecoli growth	Bfl-1 A1 inh	rRNA inh HTS RFP	UCH37 inh	FGF22 binding	rRNA inh HTS OD600	Beta apoptosis	rRNA inh HTS	T cruzi repl
Cc1ccc(C)c(S(=O)(=O)N2CCN(CC(=O)N3CCc4ccccc4C3)CC2)c1	.	0.78	0.4	.	3.6	.	.	-1	.	18
CCOC(=O)c1cnc(SCC(=O)N2CCN(C(=O)c3ccco3)CC2)nc1N	.	0.71	-0.9	-0.8	2.4	.	18	2	5	5
COc1ccccc1OCCNC(=O)CC(NC(C)=O)c1ccccc1 (stereo not given)	-4.6	0.69	0.6	2.7	1.6	i	4	-2	2	-5
O=C1CCCN1CCCNC(=S)Nc1ccc(Br)cc1Cl	-3.0	0.64	-0.5	-0.6	0.3	i	-2	-8	-2	-1
CCOc1ccc(N2CSC(=S)N(c3ccc(OCC)cc3)C2)cc1	-0.1	0.65	-0.2	0.9	2.5	i	4	3	3	18
COc1cccc(/C=C(/CC(=O)Nc2ccc(N3CCOCC3)cc2)c2nc3ccccc3s2)c1	.	0.73	-0.1	.	-0.6	.	.	4	.	21
Cc1ccc(C(=O)Nc2nnc(S(=O)(=O)N3CCC(C)CC3)s2)cc1	-1.6	0.71	-0.5	-3.0	2.2	i	8	-4	-2	5
CCCCN(C(=O)CCC(=O)Nc1cc(C)on1)C(C(=O)NC(C)(C)C)c1ccccc1Cl (stereo not given)	-0.4	0.68	-0.6	-0.5	0.5	i	5	-7	-6	9
COC(=O)Cc1c[nH]c2ccc(OCC(O)CNC(C)C)cc12 (stereo not given)	7.7	0.67	1.4	-0.2	1.6	i	3	-4	12	-2
O=C(Nc1cccc(NC(=O)c2ccc(Br)cc2)c1)c1ccccc1	-11	0.66	0.2	7.9	3.2	i	27	5	10	-7
O=C(Nc1cc(C(F)(F)F)ccc1N1CCCCC1)c1ccc(Br)o1	.	0.72	0.9	.	-1.9	.	.	1	.	30
O=C(NCC1CCCN(C(=O)CN2CCCCC2)C1)c1ccccc1Cl (stereo not given)	4.5	0.66	0.4	-5.2	4.1	i	3	-2	10	8
O=S(=O)(NCc1csc(-c2cccs2)n1)c1cccc(C(F)(F)F)c1	0.6	0.65	-1.2	-7.8	-3.7	i	-48	2	-36	9
O=C(c1cccc(C(F)(F)F)c1)C1CCCN(C(=O)CN2CCCC2=O)C1 (stereo not given)	-0.4	0.65	1.2	1.8	2.3	i	22	-7	25	.
c1ccc2c(c1)ncn2Cc1nnc2sc(-c3ccc4c(c3)OCO4)nn12	.	0.72	-0.2	.	-40	.	.	2	.	4
CCOc1ccc(NC(=O)C2=C(C)C(=O)OC23CCC(C)CC3)cc1 (stereo not given)	5.0	0.74	-0.6	-0.2	3.1	i	-26	3	-16	15
CCCc1ccc(S(=O)(=O)N2CCN(C(C)C(=O)NC3CCCC3)CC2)cc1 (stereo not given)	-5.9	0.7	.	4.8	1.5	i	-4	.	-3	.
N#Cc1ccc(C(=O)Nc2cccc(S(=O)(=O)NC3=NCCC3)c2)cc1	0.5	0.69	0.3	-2.6	0.4	i	9	0	0	.
O=C(N/N=C1\CCS(=O)(=O)c2ccc(F)cc21)c1ccc(O)cc1	0.8	.	0.0	5.4	.	i	7	1	-1	2
COc1ccc(C(=O)/C=C/Nc2ccccn2)c(OC)c1	2.8	0.7	-1.5	6.6	-40	i	1	6	2	-6
COc1ccc(NC(=O)C#Cc2ccccc2)cc1	0.4	0.65	0.3	-3.0	2.4	i	-3	-8	-9	4
COC(=O)C[C@H]1c2ccccc2S(=O)(=O)N1c1cccc(OC)c1	2.5	.	3.6	1.3	-1.7	i	-24	4	1	-14
Cc1ccc(N2C(=O)C3Sc4[nH]c(=O)sc4C(c4ccccc4)C3C2=O)cc1 (stereo not given)	.	0.71	0.4	.	-3.7	.	.	-1	.	.
Fc1cnc(Cl)nc1NC1CCCCC1	0.0	0.67	0.4	-5.3	3.0	i	-1	-7	2	-11
CCOc1cc2c3c(c1)C1(Nc4ccccc4S1)C(=O)N3C(C)(C)CC2C (stereo not given)	.	0.69	0.1	.	3.9	.	.	8	.	.
CCOc1cc(/C=C2\C(=N)N3N=C(C)SC3=NC2=O)ccc1OCCOc1cccc(OC)c1	7.5	0.76	0.3	5.9	-42	i	5	.	1	-6
COC(=O)c1ccc(C(=O)OC)c(NC(=O)CCC(=O)O)c1	.	0.72	0.1	.	-163	.	.	.	.	-3
COc1ccc(C(=O)CSc2nc(SC)ns2)cc1OC	.	0.77	0.1	.	-0.7	.	.	-5	.	-12
Fc1ccc(-c2cc(C(F)(F)F)nc(-n3cccn3)n2)cc1	0.4	0.69	-0.1	-1.9	3.0	i	-1	-9	2	-2
CC(C)(C)c1ccc(/C=C2\Oc3cc(OC(=O)N4CCOCC4)ccc3C2=O)cc1	6.6	0.7	0.5	.	3.4	i	.	-3	.	-19
COc1cc2oc(-c3ccc(O)cc3)cc(=O)c2c(O)c1OC	2.5	0.68	-0.5	.	5.6	+	.	22	.	15
Nc1cc(=O)[nH]c(SCC(=O)Nc2ccc3c(c2)CCC3)n1	-1.1	0.72	1.0	1.0	3.5	i	9	-4	2	-9
O=C(CSc1nnc(-c2ccc(Br)cc2)n1C1CCCCC1)N1CCCC1	.	0.73	-0.3	.	1.4	.	.	0	.	15
CC(C)C[C@@H](C(=O)NCc1ccco1)N1C(=O)N2CCc3c([nH]c4ccccc34)[C@@]2(C)C1=O	11	0.71	0.5	-1.6	0.9	i	9	6	4	21
C/C(=N\NC(=O)c1cccc(S(=O)(=O)N2CCOCC2)c1)c1ccc(O)cc1	-1.3	.	0.8	0.2	.	i	15	-1	0	.
CCOc1ccc(NC(=O)N(CCC(C)C)C2CCN(C(C)=O)CC2)cc1	.	0.67	-0.7	.	0.7	.	.	1	.	10
Cc1ccc(S(=O)(=O)N2CCN(C(=O)NCc3ccc(C(=O)O)cc3)CC2)cc1	-3.2	0.71	0.7	-0.2	1.0	i	5	-6	3	0
Cc1ccc(-c2nn(-c3ccccc3)cc2NC(=O)c2ccccc2)cc1	.	0.72	-0.4	.	0.2	.	.	1	.	21
COc1ccc(OC(=O)c2cccc(S(=O)(=O)N3CCCC3)c2)cc1	.	0.71	-0.2	.	4.9	.	.	-1	.	-21
O=C(COc1ccc(Cl)cc1Cl)Nc1c(-c2cccs2)nc2ccccn12	.	0.69	1.1	.	-67	.	.	2	.	-5
Cc1ccc2nc(N3C(=O)C(O)=C(C(=O)c4ccc(C)o4)C3c3ccc(O)cc3)sc2c1 (stereo not given)	1.2	0.68	-0.8	10	2.6	.	-17	-2	-12	.
Cc1ccc(-c2cc(C(=O)N3CC(C)OC(C)C3)c3ccccc3n2)o1 (stereo not given)	-3.5	0.69	-0.1	-0.3	i	i	5	1	3	8
Cc1ccc(C(=O)NC(=S)Nc2ccc(N3CCN(C(=O)c4ccco4)CC3)cc2)cc1	-0.5	0.67	0.0	2.8	2.2	i	-3	15	-8	18
Cc1cc(C(=O)OCC(=O)NCCCN2CCCC2=O)c2ccccc2n1	.	0.67	0.9	.	0.3	.	.	-5	.	-8
C=CCOc1cccc(NC(=O)c2ccccc2SC)c1	.	0.68	0.1	.	5.4	.	.	-1	.	15
CCOc1cc(C)c(S(=O)(=O)NCCCn2ccnc2)cc1C	2.6	0.63	0.1	1.8	1.3	i	-4	-3	-1	5
Clc1ccc(Oc2cnc3ccccc3n2)cc1	.	0.71	0.0	.	2.1	.	.	1	.	-5
Cc1ccc(S(=O)(=O)N(C)c2ccc(C(=O)N3CCN(Cc4ccc5c(c4)OCO5)CC3)cc2)cc1	.	0.73	0.6	.	-0.6	.	.	-10	.	47
CCCc1cc(Nc2cccc(OCC)c2)n2ncnc2n1	.	0.72	-0.2	.	3.9	.	.	-9	.	-2
CC[C@]12c3[nH]c4cc(CCC(=O)N(C)C)ccc4c3CCN1C(=O)[C@@H](CC(=O)NCCCOC)C[C@@H]2C(=O)N1CCN(C(=O)C2CC2)CC1	0.4	0.67	.	-2.3	0.0	i	17	.	5	.

(next part)
SMILES	MLL AF4-AF9 inh	Ecoli growth	Bfl-1 A1 inh	rRNA inh HTS RFP	UCH37 inh	FGF22 binding	rRNA inh HTS OD600	Beta apoptosis	rRNA inh HTS	T cruzi repl
O=C(CNC(=O)c1ccco1)OCC(=O)c1ccc2ccccc2c1	.	0.65	0.2	.	-35	.	.	-4	.	1
COc1ccc(CNC(=S)Nc2ccc(-c3ccccc3)cc2)cc1	-1.5	0.69	0.3	1.6	2.9	i	4	-1	-3	13
C=CCOc1ccc(CN(C)CC(=O)Nc2ccccc2[N+](=O)[O-])cc1	7.3	0.69	0.0	-3.6*	-1.2	i	-17*	-4	-24*	17
COCC(=O)N1CCc2ccc(NC(=O)c3ccccc3Cl)cc2C1	-1.8	0.69	2.5	2.1	5.4	i	6	3	-2	-9
C=CCNC(=S)Nc1ccc(N2CCOCC2)c(S(=O)(=O)Nc2ccccc2Cl)c1	-2.7	0.69	2.2	-4.6*	1.6	i	-5.5*	5	-34*	11
CCOc1ccc(N(CC(=O)NC2CCCCC2)C(=O)CSc2nnc(COc3ccccc3)o2)cc1	.	0.74	1.7	.	0.8	.	.	5	.	19
O=C(Cn1cncc1-c1ccc([N+](=O)[O-])cc1)Nc1cccc2ccccc12	.	0.7	0.9	.	3.6	.	.	5	.	6
Cc1cc(C)cc(NC(=O)N2C3CCCC2CC(NC(=O)C2CC2)C3)c1 (stereo not given)	1.0	0.71	-0.5	0.2	1.8	i	5	-1	4	4
Cc1cccc(C)c1NC(=O)C1CCN(S(C)(=O)=O)CC1	2.4	0.69	-0.1	-3.1	3.1	i	3	-1	-1	-3
COc1cccc(CN(Cc2cccnc2)S(=O)(=O)c2ccc(-n3cnnn3)c(C)c2)c1	-1.4	0.65	0.0	-2.2*	5.6	i	-18*	-5	-25*	8
COc1ccc(S(=O)(=O)N2CCc3ccccc32)cc1C(=O)N1CCOCC1	0.1	0.68	0.0	-2.4	3.6	i	4	-8	4	5
NC(=S)N/N=C1\CCOc2ccc(Cl)cc21	-0.1	.	0.8	0.7	.	i	-14	-10	5	12

The list is partial. The share of hits here may be higher or lower than overall.
